Bioassay records: PubChem BioAssay, several laboratories
E coli WT exp = blocks growth of wild type E. coli BW25113 | growth inhibition, % at 100 µM | OD600 absorbance | 0.15% of 98,000 active | AID 710;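 active = growth inhibition above about 50% at one test dose, limit read from the data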;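 also: growth measured after 20 h incubation at 37 °C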
CD11b adhes inh = CD11b/CD18-fibrinogen binding inhibition; inhibition, % at 10 µM; K562 CD11b/CD18 adhesion to fibrinogen, ATPlite luminescence; Mn2+ added to activate the integrin; 0.54% of 93,000 active;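 active = primary inhibition of 50% or more at 10 µM, then 40% or more on retest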; also: some results filed as inactive read as strong as hits
ERa SRC1 pot = enhances coactivator binding to human estrogen receptor alpha; coactivator binding (% of control), % at 25.6 µM; P03372; TR-FRET ERalpha-LBD/SRC-Cy5 coactivator binding, 2 h; 100 = basal binding, no effect; 1.3% of 86,000 active; AID 639; in the data active = activity above about 200%;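 also: binding measured in presence of low estradiol as agonist stimulus; 0% = peptide alone without receptor and 100% = receptor with peptide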
ERb SRC1 inh = ER-beta (human) coactivator binding inhibition; Q92731; TR-FRET ER-beta LBD / SRC1-Cy5 peptide binding; receptor agonist-loaded with 1 µM estradiol; inhibition, % at 25.6 µM; 1.3% of 86,000 active;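 active = compounds whose percent inhibition of the receptor-coactivator binding signal exceeds about 50% in the single-dose screen, limit read from the data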;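 also: 0% = receptor plus peptide wells without compound and 100% = peptide-only wells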
Target sequence (Q92731 whole entry, looked up, the tested form may be a part): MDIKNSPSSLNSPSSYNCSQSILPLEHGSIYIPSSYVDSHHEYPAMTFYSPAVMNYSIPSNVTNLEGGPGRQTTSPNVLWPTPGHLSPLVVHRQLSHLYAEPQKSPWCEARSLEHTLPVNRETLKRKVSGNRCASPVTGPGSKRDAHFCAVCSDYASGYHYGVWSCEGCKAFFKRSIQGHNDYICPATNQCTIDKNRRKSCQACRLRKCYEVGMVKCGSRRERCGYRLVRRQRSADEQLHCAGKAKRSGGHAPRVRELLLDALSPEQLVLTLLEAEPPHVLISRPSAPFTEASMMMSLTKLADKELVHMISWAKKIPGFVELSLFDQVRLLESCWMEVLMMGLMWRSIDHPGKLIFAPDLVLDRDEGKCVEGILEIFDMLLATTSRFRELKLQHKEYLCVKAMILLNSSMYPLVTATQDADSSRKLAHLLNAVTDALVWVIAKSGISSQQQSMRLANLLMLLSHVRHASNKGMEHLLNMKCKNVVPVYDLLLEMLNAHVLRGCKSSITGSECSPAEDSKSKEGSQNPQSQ
PLAP act = activators of human placental alkaline phosphatase; activation fold at 20 µM; purified PLAP enzyme, luminescent substrate read-out; active compounds read high; 1.2% of 96,000 active; in the data active = activation fold above about 2
MT1-MMP txn act = activates MT1-MMP transcription | AID 750 | HT1080 MT1-MMP promoter luciferase reporter, luminescence, overnight; active compounds read high | activation factor at 10 µM | 0.16% of 86,000 active;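 active = activation factor of at least 2 for MT1-MMP transcription at 10 µM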
ERa SRC1 inh = blocks coactivator binding to human estrogen receptor alpha. TR-FRET ER-alpha LBD / SRC-1 peptide, estradiol-bound. inhibition, % at 25.6 µM. 1.7% of 86,000 active. AID 629; in the data active = inhibition above about 50%;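 also: 0% = receptor plus peptide control and 100% = peptide only without receptor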
CD11b adhes enh = increases human CD11b/CD18 adhesion to fibrinogen | P05107+P11215 | K562 CD11b/CD18 adhesion to fibrinogen, ATPlite luminescence | 0.07% of 93,000 active | activation, % at 10 µM | AID 1499;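 active = 10 µM primary screen giving 50% or more activity, confirmed by 40% or more on retest at that dose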; also: strong numbers were not always called active; reference of the scale not given here
Numbers without * were called inactive; . = no result given; [ ] = another dose, or the depositor's remark. This is a subset (hit frequency here may not be typical).

mol	E coli WT exp	CD11b adhes inh	MT1-MMP txn act	ERa SRC1 inh	PLAP act	ERa SRC1 pot	ERb SRC1 inh	CD11b adhes enh
COC(=O)c1nnn(CC(=O)Nc2cccc(OC)c2)c1C(=O)OC	4.0	-17.7	.	14.5[fluorescence artefact?]	1.3	117.4	-3.9	-3.1
O=C(CSc1nc(C2CC2)nc2ccccc12)Nc1ccc2c(c1)OCCO2	-5.0	7.0	.	.	0.9	.	.	-1.2
O=C(Cc1cccs1)Nc1ccon1	3.0	-25.9	1	22.9	1	90.1[fluorescence artefact?]	24.5[fluorescence artefact?]	4.0
COc1cccc(NC(=O)COc2ncnc3sc(C)c(C)c23)c1	-2.0	2.5	.	.	0.9	.	.	-10.1
O=C(Nc1ccccc1C(=O)O)c1cccc(F)c1	.	.	1.1	-10.5	.	99.5	4.0	.
O=C(O)CSc1nnc(Cn2c(=O)sc3ccccc32)n1-c1cccc(Cl)c1	6.0	8.4	1	4.0	1.1	102.6	12.7[fluorescence artefact?]	-6.0
CCOC(=O)c1ccc(N2CC(O)=C(c3nc4ccccc4c(=O)[nH]3)C2=N)cc1	-7.0	-12.4	0.9	41.0	0.9	60.9[fluorescence artefact?]	37.0[fluorescence artefact?]	56.2
CCOC(=O)c1cnn(-c2cc(C)c3ccccc3n2)c1N	-8.0	-15.0	1.6	12.4[fluorescence artefact?]	0.8	122.0	11.7	-1.4
O=C(Cc1ccccc1)Nc1ccc(-c2nnc(-c3ccco3)o2)cc1	-6.0	.	1.1	.	.	.	.	.
CCSc1ccccc1C(=O)Nc1cc(C)on1	7.0	.	1.1	-8.1	0.9	108.9	-16.9	.
O=C(Nc1ccccc1)N1C(=O)C2(OCCO2)c2ccccc21	-1.0	-12.4	1.1	-8.1	0.9	107.5	-4.3	-3.2
Cc1ccc(-c2[nH]nc3c2C(c2ccsc2)C(C#N)=C(N)O3)cc1 (stereo unspecified)	-3.0	2.0	1	10.1	0.9	107.5	-7.5	1.1
Cc1[nH]c2ccccc2c1C1(O)C(=O)N(C(C)C)c2ccccc21 (stereo unspecified)	2.0	-6.4	1.2	-3.4	1	109.2	-11.0	-7.0
CC(C)=CCCC(C)CN1CCC(O)CC1 (stereo unspecified)	-2.0	2.3	1.2	-11.8	0.9	103.7	-7.5	-2.1
O=C(c1ccc2c(c1)OCO2)N1CCN=C1SCc1cccnc1	-3.0	-16.1	1	-10.6	1.1	104.0	-1.9	-1.9
CCOC(=O)c1sc(NC(=O)CSc2ncccn2)c(C#N)c1C	-3.0	-4.4	1.1	13.4	1	109.7	13.4	2.1
CCC(=O)Nc1nc2ccccc2n1CCN(CC)CC	3.0	-10.7	1.1	-15.9	1.5	109.4	-9.2	4.9
COc1ccc(-c2cc3ccccc3oc2=O)cc1NC(=S)NC(=O)c1ccc2c(c1)OCCO2	-4.0	.	.	.	1.1	.	.	.
C=CCn1c(SCC(=O)NCCOC)nc2scc(-c3ccco3)c2c1=O	-1.0	2.4	1.1	5.6[fluorescence artefact?]	1.7	92.5	7.8	1.5
O=c1oc(-c2ccc(F)cc2)nc2ccsc12	-1.0	-9.2	1.3	16.6	0.9	94.3	8.3	-3.0
O=[N+]([O-])c1ccccc1/C=N/n1c(COc2ccccc2)n[nH]c1=S	-3.0	37.3	.	.	1.1	.	.	-8.8
CC(=O)Cc1nsc(NC(=O)c2ccc(-c3cc(C(F)(F)F)ccc3Cl)o2)n1	-11.0	-12.5	1.1	-0.5	0.8	122.9	3.5	-0.2
CCOC(=O)c1cnn(-c2ncnc3sc(CC)cc23)c1N	.	-2.2	1.4	.	1.1	.	.	-3.1
CCOC(=O)c1c(CC(C)C)csc1NC(C)=O	9.0	-10.5	1.1	15.7	1	87.2	18.3	13.8
NC1=NC2(CCN(Cc3ccccc3)CC2)n2c(nc3ccccc32)N1	3.0	7.4	1.2	8.7[fluorescence artefact?]	2.6*	96.7	1.9[fluorescence artefact?]	-3.5

3 structures from above, ordered by heavy-atom count, ascending:
mol	E coli WT exp	CD11b adhes inh	MT1-MMP txn act	ERa SRC1 inh	PLAP act	ERa SRC1 pot	ERb SRC1 inh	CD11b adhes enh
CCSc1ccccc1C(=O)Nc1cc(C)on1	7.0	.	1.1	-8.1	0.9	108.9	-16.9	.
COc1cccc(NC(=O)COc2ncnc3sc(C)c(C)c23)c1	-2.0	2.5	.	.	0.9	.	.	-10.1
C=CCn1c(SCC(=O)NCCOC)nc2scc(-c3ccco3)c2c1=O	-1.0	2.4	1.1	5.6[fluorescence artefact?]	1.7	92.5	7.8	1.5

(listing goes on)
mol	E coli WT exp	CD11b adhes inh	MT1-MMP txn act	ERa SRC1 inh	PLAP act	ERa SRC1 pot	ERb SRC1 inh	CD11b adhes enh
O=C1C2ON(c3ccc(Cl)cc3)C(c3ccco3)C2C(=O)N1c1ccccc1 (stereo unspecified)	-1.0	.	1.1	-34.8	1.4	105.6	-4.1[fluorescence artefact?]	-1.4
COc1ccc(NC(=O)C2(c3ccc(NC(=O)c4ccc(OC(C)=O)cc4)cc3)CCCC2)cc1	-6.0	.	.	.	0.9	.	.	.
CN1CCN(c2nc3c(c(=O)n(C)c(=O)n3C)n2CC(N)=O)CC1	-12.0	28.0	1.2	-8.8	1.1	135.2	-2.3	-5.4
CCOc1ccc(-c2nnc(-c3ccco3)o2)cc1	6.0	10.1	.	-1.0	0.7	87.2	-5.8[fluorescence artefact?]	1.1
Cc1cc(C)n(-c2ccc(C(=O)Nc3nc4ccccc4s3)cc2)n1	-3.0	-1.8	1.6	8.7[fluorescence artefact?]	1	207.6*[fluorescence artefact?]	18.1[fluorescence artefact?]	-3.2
c1ccc(Cn2c(SCc3nc4ccccc4s3)nnc2-c2ccco2)cc1	-4.0	22.6	1.3	.	1	.	.	3.6
O=C(O)CCCCCNC(=O)CCn1nnc2ccccc2c1=O	2.0	12.5	1.2	-1.4	1	134.3[fluorescence artefact?]	-9.3[fluorescence artefact?]	-1.8

For convenience, part of the list above:
mol	E coli WT exp	CD11b adhes inh	MT1-MMP txn act	ERa SRC1 inh	PLAP act	ERa SRC1 pot	ERb SRC1 inh	CD11b adhes enh
CN1CCN(c2nc3c(c(=O)n(C)c(=O)n3C)n2CC(N)=O)CC1	-12.0	28.0	1.2	-8.8	1.1	135.2	-2.3	-5.4
CCOc1ccc(-c2nnc(-c3ccco3)o2)cc1	6.0	10.1	.	-1.0	0.7	87.2	-5.8[fluorescence artefact?]	1.1
Cc1cc(C)n(-c2ccc(C(=O)Nc3nc4ccccc4s3)cc2)n1	-3.0	-1.8	1.6	8.7[fluorescence artefact?]	1	207.6*[fluorescence artefact?]	18.1[fluorescence artefact?]	-3.2
c1ccc(Cn2c(SCc3nc4ccccc4s3)nnc2-c2ccco2)cc1	-4.0	22.6	1.3	.	1	.	.	3.6
O=C(O)CCCCCNC(=O)CCn1nnc2ccccc2c1=O	2.0	12.5	1.2	-1.4	1	134.3[fluorescence artefact?]	-9.3[fluorescence artefact?]	-1.8

Arranged by value in CD11b adhes enh (highest first): three of the compounds above
| SMILES | CD11b adhes inh | MT1-MMP txn act | ERa SRC1 inh | PLAP act | ERa SRC1 pot | ERb SRC1 inh | CD11b adhes enh |
| --- | --- | --- | --- | --- | --- | --- | --- |
| CCOc1ccc(-c2nnc(-c3ccco3)o2)cc1 | 10.1 | . | -1.0 | 0.7 | 87.2 | -5.8[fluorescence artefact?] | 1.1 |
| O=C(O)CCCCCNC(=O)CCn1nnc2ccccc2c1=O | 12.5 | 1.2 | -1.4 | 1 | 134.3[fluorescence artefact?] | -9.3[fluorescence artefact?] | -1.8 |
| CN1CCN(c2nc3c(c(=O)n(C)c(=O)n3C)n2CC(N)=O)CC1 | 28.0 | 1.2 | -8.8 | 1.1 | 135.2 | -2.3 | -5.4 |
